High-throughput results: PubChem, several laboratories
Arbovirus inh – blocks arbovirus infection; arbovirus infection cell-based antiviral screen; inhibition, % at 10 µM; 0.37% of 200,000 active; AID 1251;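 active = inhibition from about 30%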;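 note: bluetongue infection of BSR cells; cell survival read as ATP light after 72 h; 0% = infected wells without compound and 100% = uninfected wells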
Mtb bLac sens – beta-lactam sensitization of Mtb H37Rv; 0.27% of 330,000 active; inhibition, % at 25 µM; AID 434955; M. tuberculosis H37Rv growth with meropenem, percent inhibition; hits of this screen are not shown here;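 active = about 74% or more and at least 40 points above the plate without the antibiotic, then above 30% in a dose series; inconclusive = first-round hits that could not be retested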;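 note: growth measured after seven days incubation then overnight dye step; 0% = bacteria only wells and 100% = bacteria with antibiotic; twin plates without the antibiotic show which effects depend on it; some results filed as inactive read as strong as hits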
Mtb growth – M. tuberculosis H37Rv growth inhibitors, H37Rv strain (AID 1626) | M. tuberculosis H37Rv growth inhibition; higher % means a stronger effect | one-dose inhibition, % at 10 µM; IC50 in µM for titrated hits | 0.95% of 220,000 active;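 active = confirmed in a dose series; inconclusive = inhibition above 80% but not taken into the dose series; inactive = below 80% or under 30% at every dose of the series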;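 note: bacteria incubated seven days before Alamar blue readout; 0% = bacteria only wells and 100% = bacteria with antibiotic wells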
RecA intein inh – blocks M. tuberculosis RecA intein splicing; inhibition, %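 (about 9 µM by stock and volumes)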; 0.75% of 290,000 active; cell-free RecA intein splicing, fluorescence; P9WHJ3; in the data active = inhibition above about 30%; inconclusive = no clear call, values can overlap the other calls;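 note: 0% = vehicle wells and 100% = reference inhibitor control wells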
Target sequence (P9WHJ3 whole entry, looked up): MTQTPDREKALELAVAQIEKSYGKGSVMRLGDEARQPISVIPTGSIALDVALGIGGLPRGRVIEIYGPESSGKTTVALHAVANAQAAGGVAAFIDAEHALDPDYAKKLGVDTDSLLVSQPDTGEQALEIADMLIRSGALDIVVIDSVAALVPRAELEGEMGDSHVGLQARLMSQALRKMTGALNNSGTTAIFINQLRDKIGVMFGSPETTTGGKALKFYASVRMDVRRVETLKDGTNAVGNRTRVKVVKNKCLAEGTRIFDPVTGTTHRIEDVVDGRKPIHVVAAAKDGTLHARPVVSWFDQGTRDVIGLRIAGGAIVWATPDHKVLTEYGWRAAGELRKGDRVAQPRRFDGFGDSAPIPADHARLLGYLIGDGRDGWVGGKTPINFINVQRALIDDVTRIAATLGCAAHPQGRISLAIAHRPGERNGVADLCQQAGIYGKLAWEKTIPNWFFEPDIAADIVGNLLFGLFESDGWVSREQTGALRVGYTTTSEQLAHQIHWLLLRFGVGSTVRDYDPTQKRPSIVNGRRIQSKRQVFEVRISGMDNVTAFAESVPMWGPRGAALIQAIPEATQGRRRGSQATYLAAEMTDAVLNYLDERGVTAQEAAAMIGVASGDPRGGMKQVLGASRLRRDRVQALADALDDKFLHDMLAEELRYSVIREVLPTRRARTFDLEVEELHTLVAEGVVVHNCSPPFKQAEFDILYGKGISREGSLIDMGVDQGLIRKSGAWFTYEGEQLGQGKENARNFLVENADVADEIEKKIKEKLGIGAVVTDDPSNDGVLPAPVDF
YopH PTP inh – YopH (Yersinia) phosphatase inhibition; fluorescence Ex485/Em525; inhibition, %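 (about 10 µM by stock and volumes)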; 0.16% of 140,000 active;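 active = inhibition of 50% or more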;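 note: controls were vehicle for no effect and minimum signal wells for full effect; inactives centre near -20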
Arbovirus inh repeat – further read-out of Arbovirus inh, marked with its call; inhibition, %; measured here: 10K subset replicate screen; many hits read low in the repeat;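 first of two repeat runs on a subset; 0% = infected and 100% = uninfected wells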
* hit, by the source's call; ? = inconclusive; / = not tested or not shown. An excerpt; rates above refer to the full screens.

Start of the data: the first 3 records, to show the layout:
SMILES	Arbovirus inh	Mtb bLac sens	Mtb growth	RecA intein inh	YopH PTP inh	others
O=C(NC1CCCc2c1cnn2-c1ccc(F)cc1F)c1ccccc1N1CCOCC1 (stereo not drawn)	/	?	/	2.0	/
Cc1ccc(-c2nc(CS(=O)(=O)CC(=O)NC3CCCCC3C)c(C)o2)cc1 (stereo not drawn)	-2	2	-3%	0.6	/	Arbovirus inh repeat=-2
Nc1c(Cl)cc(-c2csc(N3CCCC3c3nc4cc(Cl)c(N5CCCCC5)cc4n3CCOCCO)n2)cc1Cl (stereo not drawn)	/	54	-4%	3.1	/

All compounds of this part, from the start:
SMILES	Arbovirus inh	Mtb bLac sens	Mtb growth	RecA intein inh	YopH PTP inh	others
O=C(NC1CCCc2c1cnn2-c1ccc(F)cc1F)c1ccccc1N1CCOCC1 (stereo not drawn)	/	?	/	2.0	/
Cc1ccc(-c2nc(CS(=O)(=O)CC(=O)NC3CCCCC3C)c(C)o2)cc1 (stereo not drawn)	-2	2	-3%	0.6	/	Arbovirus inh repeat=-2
Nc1c(Cl)cc(-c2csc(N3CCCC3c3nc4cc(Cl)c(N5CCCCC5)cc4n3CCOCCO)n2)cc1Cl (stereo not drawn)	/	54	-4%	3.1	/
N#Cc1ccsc1NC(=O)c1ccc(Cl)c([N+](=O)[O-])c1	/	-4	8%	1.5	/
Cc1ccc([N+](=O)[O-])c(C)[n+]1C	7	5	0%	4.7	/
Nc1ccc(Sc2nc3ccccc3[nH]2)cc1	3	1	1%	-1.2	/
CCCc1cc(=O)n2[nH]c(SCc3ccc(Cl)cc3)nc2n1	/	-6	/	1.4	/
CCN(C(=O)COC(=O)C1CCN(S(=O)(=O)c2ccc3c(c2)OCCO3)CC1)C1CCS(=O)(=O)C1 (stereo not drawn)	/	-3	/	5.2	/
CSCC[C@H](NC(=O)C1=NN(c2c(F)c(F)cc(F)c2F)C(=O)CC1)c1nc2ccccc2[nH]1	/	-2	1%	-2.0	/
O=[N+]([O-])c1ccc(OCCCn2cncn2)cc1	/	-4	/	0.1	/
Cc1nn(C)cc1/C=N\NC(=O)c1ccc(Cn2cc(Cl)cn2)cc1	2	-1	2%	-1.8	-19
CN(CC(=O)NCC1CCCCC1)S(=O)(=O)c1ccc(Cl)cc1	/	7	/	1.2	/
C=CCn1c(=O)c(C(=O)NCCN(CC)CC)c(O)c2ccccc21	-4	-5	0%	-2.6	-36
COc1ccc(NS(=O)(=O)c2cccc(C(=O)NCC(c3ccccc3)N(C)C)c2)cc1 (stereo not drawn)	/	-1	/	-1.5	/
CNC(=O)/C(C#N)=C/c1c(N2CCN(c3cccc(Cl)c3)CC2)nc2c(C)cccn2c1=O	/	0	/	-168	/
O=C(NC(=S)NC1CCS(=O)(=O)C1)c1cccc([N+](=O)[O-])c1 (stereo not drawn)	/	-13	/	-1.9	/
Fc1ccccc1NC(=S)N/N=C/c1ccccc1Br	-4	6	-5%	-3.6	-5
CC(=O)OCCCCON1C(=O)c2ccccc2C1=O	4	-9	-1%	-1.8	6
CCN1CCN(C(=O)CSc2cc(=O)n(CC)c3ccccc23)CC1	-1	1	-7%	1.1	-10
CCOC(=O)N1CCC(N(CCOC)C(=S)Nc2cccc(SC)c2)CC1	4	-7	0%	-0.2	/
O=C(O)C1CCCNC1 (stereo not drawn)	-1	4	-10%	-2.2	-32
O=C(O)c1ccccc1NC(=S)NC(NC(=O)c1ccccc1[N+](=O)[O-])C(Cl)(Cl)Cl (stereo not drawn)	17	4	0%	-3.8	-11
CCOc1ccc(N2CC(C(=O)NCc3ccccc3)CC2=O)cc1 (stereo not drawn)	2	-4	4%	-2.3	/
N#Cc1ccc(COC(=O)c2ccc(N3CCCC3)c([N+](=O)[O-])c2)cc1	19	5	6%	/	-6
COc1ccc(C(=O)NC(=S)Nc2ccccc2N2CCOCC2)cc1[N+](=O)[O-]	10	0	7%	0.2	-36

(next part)
SMILES	Arbovirus inh	Mtb bLac sens	Mtb growth	RecA intein inh	YopH PTP inh	others
CC1=C(C(=O)Nc2cccc(C(=O)NC(C)C)c2)SCCO1	/	7	/	0.0	/
Cc1nnc(SCCC(=O)Nc2ccccc2Cl)o1	/	-8	/	-1.8	/
COc1cc(CNCCNC(=O)c2cccs2)cc(OC)c1OC	5	-5	-2%	1.8	/
Brc1ccccc1-n1nnc(-c2ccnc3ccccc23)n1	0	0	-6%	4.7	/
CCCc1[nH]nc2c1C(c1cccc(OC)c1)C(C#N)=C(N)O2 (stereo not drawn)	-6	4	8%	42*	14
O=C(CSc1nc(-c2ccccc2)c(-c2ccccc2)o1)Nc1nncs1	3	4	1%	-1.1	-22
CCCn1nnnc1NCc1ccc(C(C)C)cc1	/	-1	/	-3.0	/
Cc1cc(C)cc(OCc2ccc(C(=O)NC3CCOC3=O)o2)c1 (stereo not drawn)	3	2	6%	/	/
CC(C)n1nnnc1SCC(=O)Nc1ccc2c(c1)OCO2	-23	33	1%	-0.9	-22
Cc1ccc(-n2c([S-])c(C(=O)Nc3ccc(OC(F)F)cc3)[n+]3ccc(C(=O)NCCO)cc23)cc1C	-10	2	6%	-4.2	/
CC(C)c1ccc(CN2CCSCC2)cc1	/	-10	/	0.5	/
Cn1c(COc2ccccc2)nnc1SCC(=O)c1cccc([N+](=O)[O-])c1	10	0	-8%	-4.4	-29
CCCCCOC(=O)C1=C(C)Nc2nnnn2C1c1ccc(OC)c(OC)c1OC (stereo not drawn)	-20	-1	6%	4.6	6
CC(=O)N1CCC(N2CCN(Cc3ccc(C)cc3)C(CCO)C2)CC1 (stereo not drawn)	9	-5	3%	4.8	/
Cc1cccc(NC(=O)CN2C(=O)N/C(=C/c3ccc(C)s3)C2=O)c1	-11	4	-11%	-11	-28
O=c1[nH]c(S)c(/C=C2\C=Nc3ccccc32)s1	/	2	-2%	4.1	/
C=CCNC(=O)C1CC(=O)N(c2ccc(Br)cc2)C1 (stereo not drawn)	1	-6	-1%	-0.4	-31	Arbovirus inh repeat=0
CC(=O)C(Sc1ccc2nnc(-c3cccnc3)n2n1)C(C)=O	21	-13	-9%	-1.5	/
COc1ccccc1N(CC(=O)NC1CCCCC1)S(=O)(=O)c1cccs1	/	-4	-13%	0.3	/
O=C(c1ccc(S(=O)(=O)N2CCOCC2)cc1)N1CCCc2ccccc21	9	-3	-1%	5.5	15
COC(=O)CCNC(=O)c1ccc2nc(Cc3ccc(OC)c(OC)c3)oc2c1	/	0	/	-1.5	/
O=C(COC(=O)c1ccc(S(=O)(=O)N2CCCC2)cc1)NCc1ccco1	/	-9	-4%	2.3	/
Cc1nc2cc(C(=O)NCc3cccnc3)ccc2n1-c1ccc(F)cc1F	1	-10	0%	-3.8	/
COc1ccc(S(=O)(=O)N2CCCC(C(=O)N3CCOCC3)C2)cc1OC (stereo not drawn)	/	-7	/	-1.5	/
CN(C)c1nc(NCc2ccccc2)nc(N/N=C/c2cccc(Br)c2)n1	0	4	7%	/	/

Next part:
SMILES	Arbovirus inh	Mtb bLac sens	Mtb growth	RecA intein inh	YopH PTP inh	others
COc1cc(NS(=O)(=O)c2ccc(NS(=O)(=O)c3ccc(NC(C)=O)cc3)cc2)nc(OC)n1	/	-1	/	-1.2	/
COc1ccc(/C(CC2(O)C(=O)Nc3ccccc32)=N\O)cc1 (stereo not drawn)	0	-8	-6%	-1.4	-31
CCN(CC)C(=O)Cn1c(=O)n(CCCCCC(=O)Nc2ccccc2)c(=O)c2sccc21	-4	3	5%	-1.9	-15
COC(=O)c1ccc(C2/C(=C(/O)c3ccc4c(c3)CC(C)O4)C(=O)C(=O)N2CCN2CCOCC2)cc1 (stereo not drawn)	/	-3	/	-3.5	/
Cc1ccnc(NC(=O)CCC2COc3ccccc3O2)c1 (stereo not drawn)	5	-12	2%	3.1	-3
COc1ccccc1C(c1nnnn1CC1CCCO1)N1CCN(c2ccccc2)CC1 (stereo not drawn)	5	-8	/	0.3	/
COc1ccccc1NC(=O)CSc1nc(N)c(-c2ccccc2)c(=O)[nH]1	7	-3	4%	1.3	/
CC12CN3CC(C)(CN(C1)C3c1ccc(Cl)cc1)C2 (stereo not drawn)	/	-8	-9%	-1.3	/
CC1(C)OC(=O)N(c2ccccc2)C12C=Cc1cc(Br)ccc1O2 (stereo not drawn)	-13	-11	0%	16	-5
Cc1cc2nncn2c2ccccc12	0	-7	-12%	-0.2	-18
Cc1cc2n(n1)SC(Nc1ccccc1)N2 (stereo not drawn)	0	-13	3%	-0.8	0
O=S(=O)(Nc1ncccn1)c1ccc(NC(=S)Nc2ccccc2Cl)cc1	/	-1	4%	-3.9	/
Cc1cc(C)c2c(N)c(C(=O)c3ccccc3)sc2n1	/	-2	2%	-28	/
O=C(O)C1=NOC(CNC(=O)c2ccccc2Cl)C1 (stereo not drawn)	10	-6	1%	-3.8	/
N#CC1=C(N)SC(N)=C(C#N)C1CCc1ccccc1	10	-7	-3%	0.1	6
Cc1[nH]c2ccccc2c1C(=O)C(=O)N1CCN(c2ccccc2)CC1	/	-7	/	0.0	/
CC1CCCC(N2CCN(C(=O)c3ccccc3F)CC2)C1 (stereo not drawn)	/	0	/	0.6	/
COC(=O)C1=C(C)N(Cc2ccccc2)C(=NCCCCO)N[C@H]1CCc1ccccc1	/	-3	/	-1.0	/
CNC(=S)N(CCc1c(C)[nH]c2ccc(Cl)cc12)Cc1cc(OC)c(OC)c(OC)c1	-15	-5	/	11	-31
COc1ccc(S(=O)(=O)N2c3cc(C)ccc3OCC2C(C)(C)C)cc1 (stereo not drawn)	-11	?	-10%	-4.3	-10
CCOC(=O)C1(CCc2ccccc2)CCN(C(=O)c2cccc(C)n2)CC1	6	6	10%	1.6	/
c1ccc2c(c1)Cn1c-2nc2ccccc21	5	-2	0%	3.0	-2
Cc1cc2cc(CCNC(=O)c3ccc(C)c([N+](=O)[O-])c3)c(=O)[nH]c2cc1C	-1	0	-6%	1.4	4
CC(C)Oc1ccc(CNC(=O)CCC(=O)N2CC(C)Sc3ccccc32)cc1 (stereo not drawn)	/	?	/	1.8	/
Cc1ccc(C(=O)OCC(=O)N2CC(C)CC(C)C2)cc1S(=O)(=O)N1CCCCC1 (stereo not drawn)	/	-18	/	3.2	/

Continued:
SMILES	Arbovirus inh	Mtb bLac sens	Mtb growth	RecA intein inh	YopH PTP inh	others
C=C(C)Cn1c(SCC(=O)O)nc2c1c(=O)[nH]c(=O)n2C	2	-5	1%	0.6	-10	Arbovirus inh repeat=4
COc1ccc(OCc2cc(C(=O)O)c(C)o2)cc1	/	-3	-1%	-2.6	/
CN(Cc1cnccn1)Cc1nc(Cc2ccccc2Cl)no1	2	-3	-6%	-2.1	/
CC1CCN(CCCNC(=O)c2ccc3c(Cl)c4c(nc3c2)CCCC4)CC1	/	-5	8%	4.9	/
CC(C)COc1ccc(CNC(=S)NCc2ccccc2)cc1	-42	84	8%	4.3	5
Cc1ccc(C)c(S(=O)(=O)N2CCN(C(=O)CCNC(=O)c3ccc(Br)cc3)CC2)c1	/	-2	/	3.8	/
O=C(Nc1ccccc1C(=O)N/N=C/c1ccc(F)cc1)c1ccccc1Br	-9	8	-3%	1.3	-37
Cc1ccc(N2CC(C(=O)Nc3nnc(SCC(=O)N4CCOCC4)s3)CC2=O)cc1 (stereo not drawn)	/	-4	/	-2.7	/
COC(OC)c1ccnc(-c2ccc(OC(=O)c3cccs3)cc2)n1	5	96	?	12	/
O=C(c1ccc(S(=O)(=O)c2ccccc2Cl)c([N+](=O)[O-])c1)N1CCCCCC1	-15	3	6%	9.9	-30
CCc1nc2ccccc2c(C(=O)OCC(=O)NCCCN2CCCC2=O)c1C	7	-8	/	-0.8	-16
CCc1ccc(NC(=O)C/C(C)=N/NC(=O)COc2ccccc2C)cc1	/	6	/	2.9	/
Cc1ccc(C(=O)NC2CCN(C(=O)Nc3ccccc3)CC2)cc1	/	-6	/	-1.7	/
O=c1oc2cc(OCCO)ccc2c2c1CCCC2	/	0	/	0.1	/
COc1ccc(-c2nnc(SC(C)C(=O)Nc3nccs3)n2Cc2ccccc2)cc1OC (stereo not drawn)	-13	1	-3%	2.7	-2
CC(=O)N1N=C(c2cccs2)CC1c1cccs1 (stereo not drawn)	-2	2	5%	-0.5	/
CCN(C(=O)COC(=O)/C=C/c1cnc2ccccc2n1)c1ccccc1	5	94	58%	-1.8	/
CCCC(=O)Nc1ccc(-c2nc3cc(C)c(C)cc3o2)cc1	-2	26	9%	2.1	-1
CCOc1ccc(C2C(C(=O)C3CC3)N3C=C(C#N)C=CC3C2(C#N)C#N)cc1 (stereo not drawn)	-2	-7	-5%	-2.2	-35
CCN(C(=O)CSc1nnc(-c2ccncc2)n1Cc1ccccc1)C1CCS(=O)(=O)C1 (stereo not drawn)	2	-6	0%	-1.2	/
